PI5P4Ka inh: PI5P4K alpha (human) kinase inhibition | AID 652105 | PI5P4Kalpha enzyme, ADP-Glo luminescence, 60 min; hits give low values | max response, % | actives 1.2% (n = 330,000) | P48426; active = max response of -50% or lower; inconclusive = between -30% and -50%; inactive = -30% or higher; also: value at the top dose of about 77 µM; % is scaled to controls: 0 for no effect and ±100 for the full control effect
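Compounds were pin-transferred onto PI5P4Kalpha and substrate in HEPES pH 7.4 buffer with EGTA, CHAPS and 5% DMSO. ATP (5 microM final) started the reaction, which ran 60 minutes at room temperature before ADP-Glo detection.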
FUS suppressor: FUS proteinopathy suppression in yeast; Potency, µM (series often up to 76.6 µM), for inactives: at the highest dose growth rescue (activation), usual class: activators; AID 1347120; actives 0.24% (n = 390,000); S. cerevisiae FUS-expressing, growth rescue, OD600, 24 h;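 also: potency is read from the fitted curve at half-maximal effect; plate controls were DMSO vehicle for no effect and reference control for full effect; nearly all actives have a fitted effect of over 55% in size; some results filed as inactive show a strong effect at the top dose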
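Restored growth of FUS-toxic S. cerevisiae, read as 600 nm absorbance after 24 h at 30C in galactose medium (starting OD 0.005). Controls CP55940 and DMSO.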
EPAC1 ag: agonists of human EPAC1; AID 720707; O95398; EPAC1 agonist qHTS, biochemical assay; response scale: 100% = response to 6.5 mM cAMP; Potency, µM (series often up to 154 µM), for inactives: at the highest dose activation, hits mostly activators; actives 0.073% (n = 360,000); also: potency is read from the fitted curve at half-maximal effect; nearly all actives have a fitted effect of over 60% in size
Target sequence (O95398 whole entry, looked up): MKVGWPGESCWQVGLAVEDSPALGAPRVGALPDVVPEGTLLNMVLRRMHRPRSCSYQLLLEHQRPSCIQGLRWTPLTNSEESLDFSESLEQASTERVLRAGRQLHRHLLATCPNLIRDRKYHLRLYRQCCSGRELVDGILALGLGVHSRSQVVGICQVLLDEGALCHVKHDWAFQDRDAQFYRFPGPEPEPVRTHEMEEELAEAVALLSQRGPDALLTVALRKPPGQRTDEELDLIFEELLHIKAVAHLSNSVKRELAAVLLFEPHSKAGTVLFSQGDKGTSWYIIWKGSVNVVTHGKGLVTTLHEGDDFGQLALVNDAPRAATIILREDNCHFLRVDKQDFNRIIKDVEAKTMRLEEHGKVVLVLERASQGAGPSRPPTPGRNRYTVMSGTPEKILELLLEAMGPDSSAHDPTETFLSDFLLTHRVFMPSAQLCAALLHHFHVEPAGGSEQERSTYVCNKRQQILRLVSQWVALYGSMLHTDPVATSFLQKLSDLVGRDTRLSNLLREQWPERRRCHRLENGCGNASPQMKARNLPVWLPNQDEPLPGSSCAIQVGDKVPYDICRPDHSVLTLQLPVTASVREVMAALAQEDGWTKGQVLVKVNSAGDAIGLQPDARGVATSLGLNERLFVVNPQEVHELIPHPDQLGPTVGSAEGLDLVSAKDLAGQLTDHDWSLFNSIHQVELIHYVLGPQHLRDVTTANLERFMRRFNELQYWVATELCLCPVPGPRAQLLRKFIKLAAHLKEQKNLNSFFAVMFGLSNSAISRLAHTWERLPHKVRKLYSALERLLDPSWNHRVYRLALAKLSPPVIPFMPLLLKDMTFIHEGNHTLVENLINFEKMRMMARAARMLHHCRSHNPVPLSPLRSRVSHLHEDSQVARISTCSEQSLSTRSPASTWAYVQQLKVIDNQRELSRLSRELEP
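Compounds were pinned as a concentration titration into mixtures of EPAC1 (100 nM), BODIPY-GDP-loaded Rap1B (250 nM) and GDP (50 uM). After 5 min at room temperature, fluorescence was followed for 30 min; activity was scaled to 6.5 mM cAMP.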
WRN helicase inh: WRN helicase (human) inhibition | Q14191 | WRN helicase unwinding, fluorescent forked duplex, kinetic | Potency, µM (doses to about 114 µM), for the others: top-dose activity change, negative = inhibition, most hits filed as inhibitors | actives 0.46% (n = 360,000) | AID 651768; also: potency is read from the fitted curve at half-maximal effect; % is scaled to controls: 0 for no effect and ±100 for the full control effect; nearly all actives have a fitted effect of over 55% in size
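Kinetic red-fluorescence monitoring (525/598 nm) tracks WRN helicase activity after 100 nM fluorophore-quencher forked duplex and 2 mM ATP are added to 20 nM enzyme pretreated 15 min at room temperature with compound.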
IL-2 act: IL-2 activation. IL-2 activation reporter assay, cell-based qHTS; stimulated with anti-CD3/CD4/CD28 beads; in transgenic mouse T cells. activation, % (series mostly up to about 46 µM). actives 0.065% (n = 360,000). AID 652025; in the data active = activation above about 50%; inconclusive = mostly about 30% to 49%; also: 0% is about no effect
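Unstimulated transgenic mouse T cells; 60-min compound exposure; bead-based TCR/CD4/CD28 stimulation; 18 h culture, 37 degrees C; dual fluorescence (EGFP, DsRed) plate cytometry.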
EPAC1 antagonist: blocks human EPAC1 exchange factor; O95398; EPAC1 GEF assay, Rap1b-BODIPY-GDP exchange fluorescence; Potency, µM (series often up to 115 µM), for the others: at the highest dose activity change, negative = inhibition, most hits filed as inhibitors; actives 0.14% (n = 360,000);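 also: potency is read from the fitted curve at half-maximal effect; plate controls were vehicle for no effect and positive control for full effect; nearly all actives have a fitted effect of over 50% in size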
Numbers without * were called inactive; ? = inconclusive; . = no result given; & = joins results of further samples; [ ] = dose if it differs, or a comment. Unless noted, calls follow the shape of the dose curve; as a rule, active = well fitted curve in the direction sought with a large enough effect; inconclusive = small, poorly fitted or top-dose-only effect, or another doubt; inactive = no such curve, though single readings can be large; an effect the other way counts as inactive or inconclusive. Not all compounds are listed (hit frequency here may not be typical).

The opening four records, to show the layout:
SMILES	PI5P4Ka inh	FUS suppressor	EPAC1 ag	WRN helicase inh	IL-2 act	EPAC1 antagonist
Nc1ccc(C(=O)O)cc1	4&-1&-2	-24%&-23%&-26%	-19%&-15%&-6%	7%&0%&3%	-0.1&-0.1&-0.6	4%&-24%&9%
c1ccc2c(-c3ccncc3)c[nH]c2c1	-2	.	1%	-13%	-0.8	-14%
COc1ccc(Nc2ncc3c(n2)CC(c2ccc(OC)cc2)CC3=O)cc1 (stereo unspecified)	0	-9%	4%	3%	-2.1	-10%
CCN(CC)CCOCCOC(=O)C1(c2ccccc2)CCCC1	-3	-13%	-13%	-8%	1.8	-22%

Results, from the start:
SMILES	PI5P4Ka inh	FUS suppressor	EPAC1 ag	WRN helicase inh	IL-2 act	EPAC1 antagonist
Nc1ccc(C(=O)O)cc1	4&-1&-2	-24%&-23%&-26%	-19%&-15%&-6%	7%&0%&3%	-0.1&-0.1&-0.6	4%&-24%&9%
c1ccc2c(-c3ccncc3)c[nH]c2c1	-2	.	1%	-13%	-0.8	-14%
COc1ccc(Nc2ncc3c(n2)CC(c2ccc(OC)cc2)CC3=O)cc1 (stereo unspecified)	0	-9%	4%	3%	-2.1	-10%
CCN(CC)CCOCCOC(=O)C1(c2ccccc2)CCCC1	-3	-13%	-13%	-8%	1.8	-22%
O=C(NCC(=O)N(c1ccc(F)cc1)C(C(=O)NC1CCCC1)c1cccnc1)c1cccs1 (stereo unspecified)	-9	4%	-1%	5%	1.6	9%
CC(C)(C)C(=O)OCOC(=O)[C@@H]1N2C(=O)[C@@H](N=CN3CCCCCC3)[C@H]2SC1(C)C	-2	-10%	-9%	2%	-0.1	-1%
Nc1nonc1-n1nnc(C(=O)N/N=C/c2ccncc2)c1-c1ccccc1	3	20%	-10%	-8%	0.8	13%
O=C(O)C1CCN(S(=O)(=O)/C=C/c2ccccc2)CC1	.	4%	2%	-4%	0.9	15%
CC[N+](CC)(CC)CCC(O)(c1ccccc1)C1CCCCC1 (stereo unspecified)	-2	-9%	7%	-7%	-0.1	1%
CCOC(=O)c1sc(=S)n(C)c1NC(=O)c1ccc(C(C)(C)C)cc1	-3	17%	9%	-28%	-0.1	-3%

One compound at a time, as listed above. Order of values: PI5P4Ka inh	FUS suppressor	EPAC1 ag	WRN helicase inh	IL-2 act	EPAC1 antagonist
O=C(O)C1CCN(S(=O)(=O)/C=C/c2ccccc2)CC1 reads .	4%	2%	-4%	0.9	15%
CC(C)(C)C(=O)OCOC(=O)[C@@H]1N2C(=O)[C@@H](N=CN3CCCCCC3)[C@H]2SC1(C)C reads -2	-10%	-9%	2%	-0.1	-1%
Nc1nonc1-n1nnc(C(=O)N/N=C/c2ccncc2)c1-c1ccccc1 reads 3	20%	-10%	-8%	0.8	13%
O=C(NCC(=O)N(c1ccc(F)cc1)C(C(=O)NC1CCCC1)c1cccnc1)c1cccs1 (stereo unspecified) reads -9	4%	-1%	5%	1.6	9%
COc1ccc(Nc2ncc3c(n2)CC(c2ccc(OC)cc2)CC3=O)cc1 (stereo unspecified) reads 0	-9%	4%	3%	-2.1	-10%

The list continues.
SMILES	PI5P4Ka inh	FUS suppressor	EPAC1 ag	WRN helicase inh	IL-2 act	EPAC1 antagonist
Oc1ccc(-c2nc(-c3ccc(F)cc3)c(-c3ccncc3)[nH]2)cc1	-5	-38%	-18%	-7%	0.3	-1%
CCCCN(CCCC)CCC(O)c1cc2c(Cl)cc(Cl)cc2c2cc(C(F)(F)F)ccc12 (stereo unspecified)	26	?	-14%	-9%	1.2	6%
C[N+](C)(C)CCCCCCCCCC[N+](C)(C)C	2	-54%[inhibitor]	-13%	2%	0.4	-9%
NCCc1ccn[nH]1	1	-34%	-14%	0%	-0.2	24%
CCCn1c(=O)[nH]c(=O)c2[nH]cnc21	-25	-23%	-8%	-3%	-0.4	-9%
C#C[C@]1(O)CC[C@H]2[C@@H]3CCC4=CC(=O)CC[C@@H]4[C@H]3CC[C@@]21C	-5	-29%	0%	5%	0.9	0%
Cc1ccc(-c2nn(C(C)(C)C)c3ncnc(N)c23)cc1	3	-13%	5%	4%	0.1	7%
C[C@H]1O[C@@H](O[C@H]2[C@@H](O)C[C@H](O[C@H]3[C@@H](O)C[C@H](O[C@H]4CC[C@@]5(C)[C@H](CC[C@@H]6[C@@H]5C[C@@H](O)[C@]5(C)[C@@H](C7=CC(=O)OC7)CC[C@]65O)C4)O[C@@H]3C)O[C@@H]2C)C[C@H](O)[C@@H]1O	3	10%	-8%	-3%	-0.1	-7%
CCOC(=O)N1CCC(=C2c3ccc(Cl)cc3CCc3cccnc32)CC1	6	-1%	-17%	-5%	0.0	-20%
O=C(O)c1cccnc1Sc1ccc(Cl)cc1	2	32%	1%	9%	1.6	?
O=CC(O)C1OC(=O)C(O)C1O (stereo unspecified)	?	-10%	-13%	-30%	1.3	3%
CC(C)COC(=O)NCC12C=CC(O1)C1C(=O)N(c3ccc(Cl)cc3)C(=O)C12 (stereo unspecified)	-10	24%	7%	-30%	-2.5	2%
CC(=O)OCC(=O)NCCCOc1cccc(CN2CCCCC2)c1	-10	-24%	-19%	1%	3.0	-20%
COc1cccc(OC)c1C(=O)N[C@@H]1C(=O)N2[C@@H]1SC(C)(C)[C@@H]2C(=O)O	1	9%	-11%	4%	-4.6	-11%
COc1c2occc2cc2ccc(=O)oc12	10	-26%	-5%	.	-0.3	-6%
